Bioassay records: PubChem, several laboratories
HSV augment: increases HSV replication in cells; maximum fold increase; HSV replication augmentation in cells, fold increase; AID 1956; actives 0.005% (n = 220,000);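 active means peak rise of 1.5-fold or more in the series; inconclusive means self-fluorescent or not available for retest; tested in PC3 cells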;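 further: first round at 10 µM; read as green reporter fluorescence; hits show the peak of a series up to 25 µM; 1 = signal of infected wells without compound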
GALR2 ag: agonists of human galanin receptor 2 (GALR2); O43603; GALR2-expressing cells, agonist activation read-out; activation, %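 (tested at 5 µM)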; actives 0.48% (n = 140,000);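 active means above mean plus 3 SD of all compounds, about 5% in these data, not always enough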;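 further: 0% = vehicle buffer wells and 100% = reference agonist at full effect; tested in CHO reporter cells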
Target sequence (O43603 whole entry, looked up): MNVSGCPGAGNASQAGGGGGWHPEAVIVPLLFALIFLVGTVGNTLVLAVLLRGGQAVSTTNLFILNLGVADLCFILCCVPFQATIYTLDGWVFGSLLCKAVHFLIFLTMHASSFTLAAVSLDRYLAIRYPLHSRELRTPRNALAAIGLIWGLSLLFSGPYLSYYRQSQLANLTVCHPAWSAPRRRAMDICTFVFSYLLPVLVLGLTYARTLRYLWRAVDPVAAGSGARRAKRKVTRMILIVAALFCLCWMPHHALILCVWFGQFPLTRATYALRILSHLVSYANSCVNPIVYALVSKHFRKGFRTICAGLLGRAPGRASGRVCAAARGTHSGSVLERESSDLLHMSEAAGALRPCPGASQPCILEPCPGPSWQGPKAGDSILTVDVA
Insulin prom inh: TRM-6 insulin promoter activity inhibition; TRM-6 cells (human fetal islet line), insulin promoter-eGFP reporter, imaging; reporter expression induced with tamoxifen; inhibition, % at 2 µM; actives 0.9% (n = 130,000); AID 1273;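 active means inhibition above the mean plus 3 SD, with well images judged a real hit on visual review, cut at about 60% in these data, passing the limit was not always enough; inconclusive means inhibition over the cutoff but images rejected on review; inactive means inhibition not above the cutoff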
PKD1 inh: PKD1 (human) kinase inhibition; Q15139; PKD1 kinase fluorescence polarization assay; inhibition, %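 (about 10 µM by stock and volumes)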; actives 0.056% (n = 200,000); AID 797;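 active means inhibition of 50% or more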;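 further: controls were vehicle for no effect and a reference inhibitor for full effect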
RGS16-Gao: RGS16-Galphao interaction regulator (human) | binding response (% of control), % at 10 µM | actives 0.38% (n = 220,000) | O15492+P09471 | bead-based flow cytometry RGS16-Galphao binding, fluorescence; actives lie on both sides;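 active means below 25% or above 175%, edge rows of some plates excepted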;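 further: Galphao activated by GDP with aluminum fluoride before binding; 100% = wells without compound and 0% = beads without RGS; some results beyond the cut were filed as inactive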
Target sequence (O15492 whole entry, looked up): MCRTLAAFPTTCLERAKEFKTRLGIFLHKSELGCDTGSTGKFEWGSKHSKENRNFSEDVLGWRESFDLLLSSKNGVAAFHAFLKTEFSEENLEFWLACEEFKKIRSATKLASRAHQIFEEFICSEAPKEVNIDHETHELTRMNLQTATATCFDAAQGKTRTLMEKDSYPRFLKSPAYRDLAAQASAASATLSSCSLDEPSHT
Target sequence (P09471 whole entry, looked up): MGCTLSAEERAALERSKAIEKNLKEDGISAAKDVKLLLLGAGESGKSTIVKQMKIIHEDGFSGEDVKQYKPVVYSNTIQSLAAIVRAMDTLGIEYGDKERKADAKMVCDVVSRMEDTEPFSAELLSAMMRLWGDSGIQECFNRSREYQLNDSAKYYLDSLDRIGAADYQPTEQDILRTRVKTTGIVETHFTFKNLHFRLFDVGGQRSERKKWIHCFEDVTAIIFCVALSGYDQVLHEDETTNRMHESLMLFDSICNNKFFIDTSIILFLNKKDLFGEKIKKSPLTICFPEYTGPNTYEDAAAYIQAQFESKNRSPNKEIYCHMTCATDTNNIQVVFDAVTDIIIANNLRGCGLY
Insulin prom inh cell count: second read-out of Insulin prom inh, no call of its own (marks repeat the call); normalized cell count, %; measured here: cell count, toxicity; reference of the scale not given here;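 cells exposed to compound for 48 h; stained nuclei by imaging scaled within each plate; lower means fewer cells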
HSV augment primary fold: recorded beside HSV augment, whose call it bears; fold increase; compound at 10 µM; measured here: primary screen fold increase 10 uM; tested in PC3 cells;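 GFP signal in the first replicate; 1 = infected wells without compound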
An asterisk follows results filed as active; i = inactive; ? = inconclusive; · = not tested or not shown.

#	compound	HSV augment	HSV augment primary fold	GALR2 ag	Insulin prom inh
1	COc1ccc(/C=N/NC(=O)c2cccc(Br)c2)cc1CSc1ccccn1	i	0.82	-0.8	·
2	CC(=O)NC(CC(=O)O)c1ccc(F)cc1 (configuration not stated)	i	0.94	·	·
3	O=C(Nc1nc2ccsc2c(=O)s1)c1ccc(F)cc1	i	0.74	·	·
4	CCOC(=O)c1ccc(NC(=O)c2cc3c(C)nn(-c4ccccc4Cl)c3s2)s1	i	0.89	-0.5	25
5	Cc1ccc(Nc2cc(-c3ccccc3)nc3ncnn23)cc1	i	0.97	·	·
6	Cc1noc(C)c1C(=O)N1CCN(c2ncccn2)CC1	i	0.83	-2.6	7
7	O=c1[nH]c(CSc2nnc(-c3cccnc3)n2C2CCCCC2)nc2ccccc12	·	·	-2.1	39
8	COc1ccc(CN2C(=O)c3cccnc3C2Nc2cc(Cl)ccc2OC)cc1 (configuration not stated)	i	0.85	-1.7	-39
9	Cc1ccc(Nc2nnc(SC(C)C(=O)Nc3c(C)n(C)n(-c4ccccc4)c3=O)s2)cc1 (configuration not stated)	i	0.96	-1.3	·
10	COC(=O)c1cc(Br)c(=O)n(Cc2ccc(C(=O)O)cc2)c1	i	1.1	-1.5	·
11	COc1cccc(NC(=S)N(CCc2c(C)[nH]c3ccccc23)Cc2ccco2)c1	i	0.96	-2.1	-37
12	CC(C)CNC(=O)COc1ccccc1[N+](=O)[O-]	i	1.1	0.3	·

#	Insulin prom inh cell count	PKD1 inh	RGS16-Gao
1	·	-11	103
2	·	-2	95
3	·	·	101
4	118	4	115
5	·	·	101
6	93	6	88
7	41	-3	100
8	93	3	100
9	·	9	103
10	·	21	98
11	147	-6	93
12	·	-5	101

New compounds follow.
#	compound	HSV augment	HSV augment primary fold	GALR2 ag	Insulin prom inh
13	COc1ccccc1CN(C)CC(=O)Nc1ccccc1-c1ccccc1	i	0.97	·	·
14	Oc1cccc(/C=N/NC(=S)Nc2cccnc2)c1O	i	0.63	-1.5	-43
15	NNC(=O)CNC(=O)CNS(=O)(=O)c1ccccc1	i	1.1	·	0
16	CC(=O)N1CCc2cc(S(=O)(=O)CCC(=O)Nc3ccc4c(c3)OCCO4)ccc21	·	·	-3.4	-50
17	O=C(/C=C/c1ccccc1)N1CCN(c2cccc(Cl)n2)CC1	i	0.79	-0.2	-14
18	Cc1onc(-c2ccccc2Cl)c1C(=O)NNC(=O)c1nn(C)cc1Cl	i	0.95	·	·
19	COc1ccccc1N(CC(O)COc1ccc(C)cc1)S(=O)(=O)c1ccccc1 (configuration not stated)	i	1.2	-0.2	·
20	Cc1cc2nnc(SCc3ccccc3)n2c(N)n1	i	1	-1.8	50
21	CCOc1ccc(NC(=O)C2C(C(=O)O)C3(Cl)C(Cl)=C(Cl)C2(Cl)C3(Cl)Cl)cc1 (configuration not stated)	i	0.98	·	·
22	COc1ccc(NC(=O)N2CCN(C(=O)C(Cc3ccc(F)cc3)NC(C)=O)CC2)cc1 (configuration not stated)	i	0.96	·	·
23	CCN1C(=O)/C(=C/N(C(C)=O)c2ccccc2)N(c2ccccc2)C1=S	i	0.79	-0.3	-28
24	CCN(CCCNC(=O)C1CCN(S(=O)(=O)N2CCC3(CC2)OCCO3)CC1)c1ccccc1	i	0.91	-2.1	-47

#	Insulin prom inh cell count	PKD1 inh	RGS16-Gao
13	·	-4	104
14	97	3	40
15	154	-13	103
16	146	13	99
17	63	-10	100
18	·	12	104
19	·	-6	60
20	132	-6	100
21	·	-5	97
22	·	9	108
23	116	4	64
24	99	13	99

Next section:
#	compound	HSV augment	HSV augment primary fold	GALR2 ag	Insulin prom inh
25	O=C(NC(=S)Nc1cc([N+](=O)[O-])ccc1O)c1cccnc1	i	0.85	·	·
26	NC(=O)COC(=O)c1cccc2c1-c1ccccc1C2=O	i	0.96	·	-5
27	COc1cnc(-c2ccccc2)nc1Sc1ccccc1	i	0.89	·	27
28	CC(=O)N1N=C(c2cccc([N+](=O)[O-])c2)OC1c1cccc(Br)c1 (configuration not stated)	i	1.1	·	·
29	CCCc1nc2ccccc2c(C(=O)OCC(=O)N2CCc3ccccc32)c1CC	i	1	-1.6	·
30	Cc1cc(C)c(NC(=O)COC(=O)c2cccc3c2C(=O)c2ccccc2C3=O)c(C)c1	i	0.83	1.8	-25
31	C/C(=N\NC(=O)CNC(=O)C(c1ccccc1)c1ccccc1)c1ccc(C(C)(C)C)cc1	i	0.75	1.9	0
32	Cc1cc(N2CCN(C)CC2)nc2ccc(NC(=S)N3CCN(c4ccccn4)CC3)cc12	i	0.76	·	·
33	CC(=O)c1c(-c2ccccc2)c2cc(Cl)ccc2[nH]c1=O	i	0.97	·	·
34	CC(C)CC(COCc1ccc(Cl)cc1)N1CCN(C(=O)c2ccc(C(F)(F)F)cc2)CCC1=O (configuration not stated)	i	0.91	-0.9	-48
35	COCCN1Cc2cccc(C(=O)Nc3ccc(S(=O)(=O)N4CCCCCC4)cc3)c2C1=O	i	0.97	·	·
36	CC1=C(C(=O)Nc2ccc(F)c(F)c2)C(c2cccs2)NC(=S)N1 (configuration not stated)	i	0.92	-0.1	17

#	Insulin prom inh cell count	PKD1 inh	RGS16-Gao
25	·	-5	108
26	135	2	101
27	128	2	90
28	·	-1	111
29	·	4	106
30	115	1	106
31	79	2	68
32	·	-1	102
33	·	-8	155
34	113	-7	102
35	·	·	96
36	90	-1	108

More records follow.
#	compound	HSV augment	HSV augment primary fold	GALR2 ag	Insulin prom inh
37	CCOc1ccccc1/C=N/OCC(=O)NCc1ccc(F)cc1	i	0.95	·	·
38	COC(=O)c1ccc(C)c(NS(=O)(=O)c2ccc3c(c2)OCCO3)c1	i	0.63	0.0	-35
39	Cc1cc(NS(=O)(=O)c2ccc(NC(=O)c3cnc4sccn4c3=O)cc2)nc(C)n1	i	0.91	·	·
40	CCCC(O)(CCC)C(=O)NN1CCCCC1	i	1.2	-0.8	-30
41	CC/C(=N/NC(=O)CNc1ccc(Cl)cc1C)c1ccccc1	i	0.98	·	-100
42	Cc1ccc(-c2nnc(N3CCCCC3)c3ccccc23)cc1S(=O)(=O)NCC1CCCO1 (configuration not stated)	i	0.76	-0.2	23
43	COC(=O)C(C)N(C(=O)c1cccc2ccccc12)c1c(C)cccc1C (configuration not stated)	i	0.9	-3.8	57
44	COc1ccccc1NC(=S)N(Cc1ccc(C)cc1)Cc1cccnc1	i	0.98	·	-47
45	Cc1ccccc1N(CC(=O)Nc1ccccc1C(=O)O)S(C)(=O)=O	i	0.88	-4.1	45
46	COc1ccccc1C(=O)Nc1cccc(N(C)S(C)(=O)=O)c1	i	0.96	-0.8	-18
47	Cc1occc1C(=O)Nc1cccc(Cn2cccn2)c1	i	1.2	-1.0	-38
48	O=c1[nH]c(=O)n(-c2ccccc2)c2c1C(C(F)(F)F)(C(F)(F)F)N=C(CCC1CCCCC1)N2	i	0.77	2.5	12

#	Insulin prom inh cell count	PKD1 inh	RGS16-Gao
37	·	-2	104
38	21	-8	93
39	·	-6	102
40	63	1	103
41	119	-4	100
42	66	-2	101
43	116	-1	106
44	82	2	96
45	106	-1	104
46	76	4	101
47	142	1	111
48	65	-9	99

More records.
#	compound	HSV augment	HSV augment primary fold	GALR2 ag	Insulin prom inh
49	O=C(CSc1nc(O)cc(=O)n1-c1ccccc1)N1CCCCC1	i	0.86	-2.8	-52
50	CC(C)c1nc(SCc2c(F)cccc2Cl)c2c(=O)n(C)c(=O)n(C)c2n1	i	0.95	-3.2	·
51	COc1ccc(CNC(=O)C(c2ccc(C)o2)N(C(=O)c2csnn2)c2ccc(C(C)C)cc2)cc1 (configuration not stated)	i	0.81	-0.4	-16
52	COCCC(=O)N1CCc2c([nH]c3ccccc23)C1C(C)(C)C (configuration not stated)	i	1	·	·
53	Cc1cc2c(c(=O)n1C)C(Cc1ccccc1)C(C#N)=C(N)O2 (configuration not stated)	i	0.93	-1.4	-13
54	COc1ccccc1NC(=O)CN1CCC(c2nc3ccccc3[nH]2)CC1	i	0.89	·	·
55	Cc1cc(C(=O)N/N=C/c2ccc([N+](=O)[O-])cc2)c2ccccc2n1	i	0.67	·	·
56	Cc1ccc(Sc2cnc3ccccc3n2)cc1	i	1.1	-2.8	21
57	Cc1cc(C)c2c(N=CN(C)C)c(C(=O)N3CCN(c4ncccn4)CC3)sc2n1	i	0.92	-4.0	·
58	O=C1N(c2cccc(Cl)c2)C(c2ccccc2)N2CCCN12 (configuration not stated)	i	0.97	-0.8	26
59	O=S(=O)(N1CCOCC1)N1CCCN(S(=O)(=O)N2CCOCC2)CC1	i	0.96	-1.1	·
60	COC(=O)c1ccc(N2CCC(c3cc(-c4ccc(OC)cc4)n[nH]3)CC2)c([N+](=O)[O-])c1	i	1.1	-3.4	-11

#	Insulin prom inh cell count	PKD1 inh	RGS16-Gao
49	35	-2	101
50	·	3	97
51	193	-1	99
52	·	-3	128
53	123	9	99
54	·	-6	103
55	·	·	101
56	102	1	115
57	·	-8	103
58	138	0	98
59	·	-21	117
60	89	-3	106

4 of these compounds, reformatted:
59: O=S(=O)(N1CCOCC1)N1CCCN(S(=O)(=O)N2CCOCC2)CC1
  HSV augment: i	HSV augment primary fold: 0.96	GALR2 ag: -1.1	Insulin prom inh: ·	Insulin prom inh cell count: ·	PKD1 inh: -21	RGS16-Gao: 117
47: Cc1occc1C(=O)Nc1cccc(Cn2cccn2)c1
  HSV augment: i	HSV augment primary fold: 1.2	GALR2 ag: -1.0	Insulin prom inh: -38	Insulin prom inh cell count: 142	PKD1 inh: 1	RGS16-Gao: 111
27: COc1cnc(-c2ccccc2)nc1Sc1ccccc1
  HSV augment: i	HSV augment primary fold: 0.89	GALR2 ag: ·	Insulin prom inh: 27	Insulin prom inh cell count: 128	PKD1 inh: 2	RGS16-Gao: 90
29: CCCc1nc2ccccc2c(C(=O)OCC(=O)N2CCc3ccccc32)c1CC
  HSV augment: i	HSV augment primary fold: 1	GALR2 ag: -1.6	Insulin prom inh: ·	Insulin prom inh cell count: ·	PKD1 inh: 4	RGS16-Gao: 106

Continuation:
#	compound	HSV augment	HSV augment primary fold	GALR2 ag	Insulin prom inh
61	CSCCC(NC(=O)C1CCC(C)CC1)C(=O)NCCN1CCC(C)CC1 (configuration not stated)	i	0.99	·	·
62	COc1cc(CCC(=O)Nc2ccc(Br)c(C(F)(F)F)c2)cc(OC)c1OC	i	0.95	0.5	-47
63	Cc1ccc(CCNC(=O)C2CCC(=O)N2C2CCCC2)cc1 (configuration not stated)	i	0.9	-2.1	56
64	NC(=O)[C@@H]1CCCNc2c(F)cc([N+](=O)[O-])cc2C(=O)N[C@@H](CO)C(=O)NCC(=O)N1	i	1	-0.7	20
65	CC(=O)Nc1ccc(S(=O)(=O)N2CCN(C)CC2)cc1	i	0.79	-1.4	59
66	CC(=O)C1C(c2ccc(Br)cc2)C2C(C)=NN=C2CC1(C)O (configuration not stated)	i	0.84	-1.8	·
67	c1ccc(Oc2ccc(-n3cnnn3)cc2)cc1	i	0.83	-1.8	18
68	Cc1cccc(Nc2ncnc3c2cnn3Cc2ccccc2)c1	i	0.94	·	-76
69	O=C(COc1ccccc1)Nc1nc(-c2ccc(S(=O)(=O)N3CCOCC3)cc2)cs1	?	·	-1.7	27
70	N#CCC(=O)Nc1nc(-c2ccc3c(c2)OCCO3)cs1	i	1.2	·	-5
71	Cc1ccc(S(=O)(=O)N(Cc2nccn2C)C(C)C)cc1	i	0.82	-2.1	·
72	N=c1n(CC(=O)c2cccs2)c2ccccc2n1Cc1ccccc1	i	0.7	·	·

#	Insulin prom inh cell count	PKD1 inh	RGS16-Gao
61	·	-8	100
62	118	3	105
63	120	-5	93
64	118	3	98
65	100	-6	100
66	·	1	92
67	82	-9	99
68	79	0	98
69	61	1	105
70	95	0	91
71	·	12	99
72	·	·	101

Following part.
#	compound	HSV augment	HSV augment primary fold	GALR2 ag	Insulin prom inh
73	Cc1ccc(C)c(C(=O)CN2Cc3ccccc3C2=O)c1	i	1	·	·
74	COC(=O)C1=CNC=C(C(=O)OC)C1c1ccccc1Cl	i	0.38	9.4	-20
75	CN(CCC#N)CC(=O)Nc1ccc(NC(=O)CN(C)CCC#N)cc1	i	1	-1.9	-60
76	Cn1c(SCC(=O)NCc2ccco2)nnc1-c1ccc(S(=O)(=O)N2CCOCC2)cc1	i	0.88	2.3	6

#	Insulin prom inh cell count	PKD1 inh	RGS16-Gao
73	·	·	100
74	145	-1	106
75	79	-16	105
76	95	0	96
